NPYLR7 ag: activates Aedes aegypti NPYLR7 receptor; HEK293T NPYLR7/Galpha15, GCaMP6s calcium fluorescence; actives 0.15% (n = 270,000); activation, % at 10 µM; AID 1259423; in the data active means activation above about 40%;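 further: 0% = vehicle and 100% = reference agonist at the receptor; some compounds past the cut are filed as inactive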
NPYLR7 ag max-min: further read-out of NPYLR7 ag, marked with its call; activation, %; measured here: Max-Min RFU normalised activation; some inactives read as strong as hits;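 span of the calcium signal over five minutes; 0% = vehicle and 100% = native peptide agonist; compound fluorescence can raise it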
Active calls of the source: *.

SMILES | NPYLR7 ag | NPYLR7 ag max-min
CCCCn1c(=O)c2c(nc3n2CC(C)CN3c2ccc(F)cc2)n(C)c1=O (stereo unspecified) | -0.3 | -1.6
CN(C)c1ccc(NC(=O)c2cccs2)cc1CN(CC1CCCO1)S(C)(=O)=O (stereo unspecified) | 0.4 | 9.3
CN(C)S(=O)(=O)c1ccc(C(=O)N(Cc2cccnc2)c2nc3c(F)cc(F)cc3s2)cc1 | -21.5 | -9.0
O=C(CN1C(=O)c2ccccc2S1(=O)=O)NCc1ccccc1 | 2.3 | 1.5
Cc1cc(O)c(C(c2ccccc2)N2CCCCC2)c(=O)n1Cc1cccnc1 (stereo unspecified) | 19.5 | 13.5
COc1ccc(OC)c(C2NC(=O)N(C)C3=C2C(=O)N(C2CCCCC2)C3)c1 (stereo unspecified) | 37.7 | 39.0
C=CCSc1nnc(N2C(=O)CC(c3cccs3)C3=C2CCCC3=O)s1 (stereo unspecified) | 1.0 | 41.0
COc1cccc(Oc2nnc(-c3ccccc3)c3ccccc23)c1 | -8.6 | -16.3
CCc1nc2c(OCc3ccc4c(c3)OCO4)cccn2c1N(C=O)CC(=O)N(C)C | 11.1 | -2.1
CN(C)c1ccc(NC(=O)c2ccco2)cc1CN(Cc1ccco1)C(=O)c1cccs1 | -8.5 | 4.7
COC(=O)Cn1c(=NC(=O)c2nc3ccccc3s2)sc2ccccc21 | 1.9 | -1.1
O=C1CCCC2=Nc3ncnn3C(c3ccc(Cl)cc3)C12 (stereo unspecified) | 6.8 | 10.5
Clc1c(C=NCc2ccco2)sc2ccccc12 | 3.2 | 2.2
CCCCCCCC(=O)Nc1nnc(SCC(=O)c2ccc(F)c(F)c2)s1 | 16.1 | 16.0
Cc1cc(C(=O)N2CCCCC2C)ccc1NC(=O)COc1ccc(F)cc1 (stereo unspecified) | 1.0 | 0.5
CCc1c(C)c(C#N)c2nc3ccccc3n2c1Cl | 4.6 | 8.4
Cc1ccc(/C=C/C(=O)Nc2c(C)nn(C)c2C)o1 | 0.8 | 17.3
O=P1(N2CCN(c3ccccc3)CC2)C=C(c2ccccc2)SC(c2ccccc2)=C1 | -1.3 | -3.0
COc1ccc(CNC(=O)c2cccnc2N2CCN(C(=O)c3c(F)cccc3Cl)CC2)cc1 | -6.2 | -3.9
CN(c1ccccc1C(N)=O)S(=O)(=O)c1ccc2c(c1)CCCC2 | -1.4 | 0.4
CC(=O)Oc1cccc(C(=O)Nc2ccc(-c3nc4ccccc4o3)cc2)c1 | -8.5 | -15.3
O=C(NCCOc1ccccc1)c1sc2cc(F)ccc2c1Cl | 1.8 | -2.4
CSc1nc2c(c(C(F)(F)F)n1)CC(C)CC2 (stereo unspecified) | -4.0 | -3.6
CN(CC(F)(F)F)C(=O)CN(C1CC1)C1CCS(=O)(=O)C1 (stereo unspecified) | 3.4 | 0.5
COCCN(Cc1nccn1Cc1ccccc1Cl)S(=O)(=O)c1ccc(C)cc1 | 5.7 | 7.1
O=C(CN1CCC(Cn2cnc3ccccc32)CC1)Nc1nccs1 | -0.1 | -3.0
O=C(NC1CCSc2ccccc21)c1cnc2ccccc2n1 (stereo unspecified) | 0.0 | 12.1
CCOc1c(CC)cnc2c1c(=O)n(Cc1cccnc1)c(=O)n2C | -6.7 | -8.2
CN1CCN(C(c2ccco2)C2Sc3ncnn3C2=O)CC1 (stereo unspecified) | 10.3 | 9.3
Cc1cc(C(=O)N2CCN(c3nccc(-c4ccc(N5CCOCC5)cc4)n3)CC2)c(C)o1 | 1.0 | -6.6
Cc1nn(-c2nnc(NCc3ccccc3)nn2)c(C)c1Br | 2.2 | -1.7
c1ccc(CCc2nn3cnnc3s2)cc1 | -1.0 | -4.1
O=C(NC1CCCC1)c1ccc(Br)o1 | 11.5 | 9.5
O=C(O)CCn1c(O)c(C=C2C=Nc3ccccc32)sc1=S | 46.5* | 43.2*
Cc1ccsc1[C@@H]1CCN(C(=O)c2cnc(-c3ccccc3)[nH]2)C[C@H]1O | 12.1 | 9.5
Cc1ccccc1-c1ncc(CN2CCC3(CC2)CNC(=O)C3)s1 | 3.2 | 8.3
Cn1nnnc1SCc1csc(-c2c(F)cccc2F)n1 | 14.6 | 17.4
CC(=O)NC1C(=O)N(CCCOc2ccccc2Cl)c2ccc(Cl)cc21 (stereo unspecified) | -0.4 | -0.7
O=C(COc1cc(=O)n2ccccc2n1)NCc1ccc(F)cc1 | -5.2 | -0.6
COc1cc(=O)n(-c2ccc(F)cc2)nc1C(=O)NC(C)C | 9.8 | 6.4
CCc1nc2ccc(C(=O)NCc3ccc(OC)cc3)cn2c1N(CC)CCOC | -8.4 | -10.4
CCC(C)N(Cc1ccc(C(O)(c2ccccc2)c2ccccc2)o1)Cc1cccs1 (stereo unspecified) | -1.7 | 3.7
Cn1c(CCNC(=O)CC2CCCC2)nc2c(F)cccc21 | 10.2 | 4.0
Cc1nc(CC(=O)N2C(=NCc3ccccc3)SCC2(C)C)cs1 | 13.0 | 7.0
CC(=O)c1sc2nsc(SCCN3CCCC3)c2c1N | -1.7 | -2.6
COc1ccc(-n2cc(-c3ccnc(N(C)Cc4cc(C)[nH]n4)n3)cn2)cc1 | -4.0 | -6.1
CCc1ncn(Cc2nc(-c3cc(OC)ccc3F)oc2C)n1 | 23.6 | 6.4
CCOCc1c(C(=O)Nc2ccc3c(c2)OCCCO3)oc2ccccc12 | -1.1 | 1.1
CC1CCN(CC(=O)N2N=C(c3ccccc3Cl)CC2c2ccccc2Cl)CC1 (stereo unspecified) | 0.2 | 1.4
Cc1ccc(-c2nnc(CN3CCCC(c4nc5ccccc5[nH]4)C3)o2)cc1 (stereo unspecified) | -1.0 | -2.9
CCc1nc2ccc(C(=O)Nc3cccc(OCC(=O)N(C)C)c3)cn2c1N(C)C(=O)C1CCCCC1 | -3.5 | -8.8
O=C(NCc1ccccc1)c1cccc(N2CCCS2(=O)=O)c1 | -1.2 | -0.9
NN(CCC(=O)N1CCCCC1)C1=NS(=O)(=O)c2ccccc21 | 10.5 | 5.6
O=C(CSc1nc2sc3c(c2c(=O)n1Cc1ccco1)CCC3)NC1CCCC1 | -1.1 | -0.9
CC(=O)Nc1cccc2c1CCN(C(C)c1cccc3ccccc13)C2 (stereo unspecified) | 12.9 | 7.8
CCCNC(=O)c1cc(-c2ccccc2OC)nc2cc(-c3ccc(Cl)cc3)nn12 | 13.5 | 15.3
Cc1c(C)c(C)c(S(=O)(=O)N2CCC(Cc3ccc(-n4cccc4)cc3)CC2)c(C)c1C | 18.7 | 14.1
CCOc1ccc(-c2ccc(=O)n(CCNC(=O)NC3CCCCC3)n2)cc1 | -2.7 | -2.8
CN1CC=C2C(C#N)C(=N)C(C#N)(C#N)C(c3ccc(F)cc3F)C2C1 (stereo unspecified) | 16.2 | 11.4
CSCCC(=O)N1CCC(C2CCN(Cc3cccc(F)c3F)CC2)C1 (stereo unspecified) | -3.8 | -6.0
The listing continues.
SMILES | NPYLR7 ag | NPYLR7 ag max-min
COc1cc(/C=C2/C(=O)N(c3ccc(Cl)c(Cl)c3)N=C2C)cc(OC)c1O | 10.5 | 15.1
CCOc1cccc(CNC(C)c2cnc(-c3ccncc3)nc2C)c1 (stereo unspecified) | 2.0 | -3.5
CS[C@H]1C[C@H]2OC(c3ccccc3)=N[C@H]2C(=O)N1Cc1ccccc1 | -7.0 | -10.1
Cc1ccc(C(C)C)cc1OCC(=O)N=Nc1c(O)[nH]c2ccc(F)cc12 | -3.8 | 5.3
Cc1cc2cc(CCNC(=O)COc3ccc(Cl)cc3)c(=O)[nH]c2cc1C | 1.0 | 7.5
CCCc1cc(=O)n2[nH]c(COC)c(-c3ccc(C)cc3)c2n1 | -17.4 | -24.0
Cc1ccc(S(=O)(=O)Nc2ccc(O)c(-c3c(O)ccc4ccccc34)c2)cc1 | 6.6 | 3.9
COc1cccc(C2c3[nH]c4ccccc4c3CCN2C(=O)c2cc(C)oc2C)c1OC (stereo unspecified) | 3.5 | -1.6
CCc1cccc(NC(=O)Cn2nc(SC)c(-c3nc(-c4ccc(OC)c(OC)c4)no3)c2N)c1 | 1.9 | -14.7
CCC1CC/C(=N\NC(=O)c2cc(-c3ccco3)nc3ccccc23)C1 (stereo unspecified) | 2.1 | 11.6
COc1cccc(CNC(=O)C2COc3ccccc3O2)c1 (stereo unspecified) | 4.5 | 1.3
Cn1ccnc1-c1ccc(NCC2COCCO2)nn1 (stereo unspecified) | 2.9 | 2.4
COc1ccc(-c2c(=O)n(OC)c3ccccc3[n+]2[O-])cc1OC | 17.8 | 11.1
O=c1c2c3n(c4ccccc4c(=O)n3c3ccccc13)CC2 | 10.1 | 8.5
CC(=O)Nc1ccccc1OCC(=O)Nc1cccc([N+](=O)[O-])c1 | 30.5 | 17.1
COc1cc(C)c(CN2CCC3(CCCN(CC4CC4)C3=O)C2)cc1C (stereo unspecified) | 4.1 | 1.9
O=S(=O)(CCSc1ccccc1)OCC(F)(F)F | 0.3 | 32.0
Cc1ccc(C(O)c2cccnc2)o1 (stereo unspecified) | 3.0 | -0.6
COc1cc(-c2noc(-c3cc(C4CC4)[nH]n3)n2)cc(OC)c1OC | 3.4 | 5.9
Cc1nc2c(c(N(C)C)n1)CCN(C(=O)c1nnc3n1CCCCC3)C2 | -1.8 | 0.9
CC(C)CC(=O)Nc1ccnn1C1CCN(C(=O)c2scc3c2CCCC3)CC1 | 3.1 | 0.5
CC(O)(CNc1ccc(Cl)c(C#N)n1)c1ccccc1 (stereo unspecified) | 10.8 | 9.3
COc1cc(C2Nc3ccccc3N=C3CC(C)(C)CC(=O)C32)cc(OC)c1O (stereo unspecified) | -1.1 | -5.6
CC(=O)Nc1nc(COc2ccc(Cl)cc2Br)cs1 | -6.0 | -7.9

In another format: results already given.
mol: CC(C)CC(=O)Nc1ccnn1C1CCN(C(=O)c2scc3c2CCCC3)CC1
  NPYLR7 ag = 3.1 | NPYLR7 ag max-min = 0.5

mol: CC(=O)Nc1nc(COc2ccc(Cl)cc2Br)cs1
  NPYLR7 ag = -6.0 | NPYLR7 ag max-min = -7.9

More records.
SMILES | NPYLR7 ag | NPYLR7 ag max-min
COc1cc(C(=O)Nc2cc(C)cc(C)c2)cc(Cl)c1O | -3.3 | -3.1
Cc1[nH]n(-c2ccc(F)cc2)c(=O)c1C1=C(N2CCN(C)CC2)C(=O)N(C2CCCCC2)C1=O | 11.2 | 14.4
COCC(O)CN(C)CC1CC(c2ccccc2)=NO1 (stereo unspecified) | -2.8 | 4.7
CCN(CC)Cc1cnc2c(C(=O)Nc3ccc[nH]c3=O)cnn2c1 | 6.0 | 2.6
CC(O)C12CC3CC(CC(C3)C1)C2 (stereo unspecified) | 5.7 | 4.5
CCC(=O)Nc1c(-c2ccccn2)nsc1C(=O)N1CCC(Cc2ccccc2)CC1 | -2.1 | -4.5
Cc1ccc(-n2nc(C(=O)N3CCN(C)CC3)c(=O)n(Cc3cccc(F)c3)c2=O)cc1C | 15.5 | 12.2
CC(C)NC(=O)C(C)Sc1nnc(C(F)(F)F)n1C (stereo unspecified) | 0.3 | 0.2
Cc1ccc(-n2nc(C)c3c(=O)c(C(=O)Nc4ccccc4C)c[nH]c32)cc1 | -1.2 | 15.3
CNC(=O)[C@@H]1C[C@@H](N)CN1Cc1cc(C)n(-c2cc(C)ccn2)c1C | 3.0 | -6.8
COc1ccc(CCn2ccnc2-c2coc(C)n2)cc1OC | -1.6 | -9.5
c1ccc2c(OCCCCCn3ccnc3)cccc2c1 | 1.9 | 2.7
Cn1cc(C(=O)Nc2ccc3c(c2)OCCO3)c2nn(-c3ccccc3)c(=O)c-2c1 | 5.2 | 6.1
CCOc1ccc(-c2ccc(OCCNS(=O)(=O)CC)nn2)cc1 | -6.9 | -5.8
O=C(/C=C/c1cccc(Br)c1)N1CCN(c2ccccc2O)CC1 | 3.6 | 2.7
COc1ccc(Br)cc1/C=N\Nc1ncnc2nc[nH]c12 | -1.0 | -4.1
CCn1c(C)ccc(C(=O)N2CCCC(CCc3ccc(OC)cc3)C2)c1=O (stereo unspecified) | 6.2 | 3.2
O=C(CN1C(=O)c2ccccc2C1=O)Nc1ccc(O)cc1C(=O)O | -9.0 | -12.7
COc1cccc(N2C(=O)CSC2c2cccc(NC(=O)c3ccc(Br)cc3)c2)c1 (stereo unspecified) | 11.2 | 14.9
Cc1ccc2nc(C)c(NC(=O)Nc3cccc(F)c3)c(=O)n2c1 | -2.4 | -3.2
CC1(C(=O)NCc2cccnc2)CCN1C(=O)Cc1cccs1 (stereo unspecified) | -1.1 | -0.6
CCOC(=O)C1=C(C)N(c2ccc(N(C)C)cc2)C(C)=C(C(=O)OCC)C1c1ccc(Cl)cc1Cl | 4.3 | 2.9
Cc1cccc(Cn2c(=O)c(C(=O)NCCc3ccccn3)nn(-c3ccc(Cl)cc3)c2=O)c1 | 10.7 | 24.1
CCCCCOc1ccc(C(=O)NCCOC)cc1OCCCCC | -4.4 | -10.0

In the list so far, 11 have a thiophene ring, fused or not.
SMILES | NPYLR7 ag | NPYLR7 ag max-min
CN(C)c1ccc(NC(=O)c2cccs2)cc1CN(CC1CCCO1)S(C)(=O)=O (stereo unspecified) | 0.4 | 9.3
C=CCSc1nnc(N2C(=O)CC(c3cccs3)C3=C2CCCC3=O)s1 (stereo unspecified) | 1.0 | 41.0
CN(C)c1ccc(NC(=O)c2ccco2)cc1CN(Cc1ccco1)C(=O)c1cccs1 | -8.5 | 4.7
Clc1c(C=NCc2ccco2)sc2ccccc12 | 3.2 | 2.2
O=C(NCCOc1ccccc1)c1sc2cc(F)ccc2c1Cl | 1.8 | -2.4
Cc1ccsc1[C@@H]1CCN(C(=O)c2cnc(-c3ccccc3)[nH]2)C[C@H]1O | 12.1 | 9.5
CCC(C)N(Cc1ccc(C(O)(c2ccccc2)c2ccccc2)o1)Cc1cccs1 (stereo unspecified) | -1.7 | 3.7
CC(=O)c1sc2nsc(SCCN3CCCC3)c2c1N | -1.7 | -2.6
O=C(CSc1nc2sc3c(c2c(=O)n1Cc1ccco1)CCC3)NC1CCCC1 | -1.1 | -0.9
CC(C)CC(=O)Nc1ccnn1C1CCN(C(=O)c2scc3c2CCCC3)CC1 | 3.1 | 0.5
CC1(C(=O)NCc2cccnc2)CCN1C(=O)Cc1cccs1 (stereo unspecified) | -1.1 | -0.6

The list is partial; count on the stated rates, not on these rows.
